Compound activity as filed in PubChem BioAssay.
26S disassembly: blocks ATP-dependent breakdown of the yeast 26S proteasome; anti-FLAG beads, GFP-proteasome disassembly, flow cytometry; inhibition of disassembly, % (concentration not given with the values); actives 0.2% (n = 24,000);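 active = above 40%; inconclusive = likely self-fluorescent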;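 note: plate controls were ATP control with full disassembly for no effect and ATP-gamma-S intact proteasomes for full effect; higher percent means more bead fluorescence retained so stronger block of disassembly; stock transfer was 100 nL into about 10 µL; wells with too few beads may also be inconclusive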
VCAM-1 rise: enhancers of VCAM-1 display on endothelial cells, cell-based, plate reader, pooled HUVEC, TNFa stimulus (AID 455); augmentation, % at 5 µM; HUVEC TNFa-induced VCAM-1 immunofluorescence, plate reader; numbers were filed only for top-ranked candidate wells; actives 0.2% (n = 10,000);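 active = a compound raising TNF-alpha-driven VCAM-1 surface staining, with its hit status upheld on visual or statistical review; inactive = the rest, including hits rejected on review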;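 note: 0% = TNFa with vehicle and 100% = strongest image-checked hit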
An asterisk follows results filed as active; i = inactive; ? = inconclusive; nt = not tested or not shown. An excerpt; the hit share may differ from the screen's.

Results follow in this order: 26S disassembly | VCAM-1 rise
(1) CC1CCc2c(sc3nc(SCc4nc(-c5ccccc5)no4)n(C)c(=O)c23)C1 (stereo unspecified)
  -0.3 | nt
(2) Cc1noc(C)c1S(=O)(=O)N(CC(=O)Nc1ccc2c(c1)OCCO2)c1ccc(C(C)C)cc1
  -0.3 | nt
(3) Cn1c(=O)c2cc(S(=O)(=O)NCCC(=O)NCC3CCCO3)ccc2n(C)c1=O (stereo unspecified)
  0.1 | nt
(4) Cc1ccc(-c2noc(CCC(=O)NCCN3CCc4ccccc4C3)n2)cc1
  3.5 | nt
(5) CCN1CCN(C(c2cccs2)C(C)NC(=O)c2c(F)cccc2F)CC1 (stereo unspecified)
  1.0 | nt
(6) O=S(=O)(c1ccc(Br)s1)n1cccn1
  1.8 | nt
(7) Cc1ccc(-c2nn[nH]n2)cc1
  -0.2 | i
(8) O=C(C1CCCN1S(=O)(=O)c1ccc(Cl)c(Cl)c1)N1CCOCC1 (stereo unspecified)
  0.7 | nt
(9) Cc1cc(C)n2nc3nc(N4CCCCC4)nc(-c4ccco4)c3c2n1
  3.6 | i
(10) CC(NC(=O)c1noc2c1CCCC2)c1ccccc1 (stereo unspecified)
  -0.3 | nt
(11) CCOc1cc(C2C(C(=O)O)c3cc(OCC)c(OCC)cc3C(=O)N2C)ccc1O (stereo unspecified)
  0.6 | nt
(12) COc1ccc(OCCSc2nc3ccccc3n2CC(=O)O)cc1
  -2.0 | i
(13) Cn1c(C(=O)NCCc2ccsc2)cc2c(=O)n(C)c3ccccc3c21
  -0.6 | nt
(14) O=CN1CCN(C(C(=O)NC2CCCC2)c2ccc(Cl)cc2)CC1 (stereo unspecified)
  0.2 | nt
(15) CCC(Sc1nc2n[nH]c(C)c2c(=N)n1-c1cccc(Cl)c1C)C(=O)N(CC)CC (stereo unspecified)
  -1.5 | nt
(16) CCCCNC(=O)CC1N=C2c3ccccc3N=C(SCC(=O)Nc3cccc(OC)c3)N2C1=O (stereo unspecified)
  -3.9 | nt
(17) Cc1cnc(C(=O)NCCc2ccc(S(=O)(=O)NC(=O)NC3CCCCC3)cc2)cn1
  -0.4 | i
(18) CCOC(=O)c1c(N)c(C#N)nn1-c1ccccc1C(=O)OC
  -1.3 | i
(19) Cn1c(=O)c2c(nc(NCC3CCCO3)n2C)n(C)c1=O (stereo unspecified)
  -1.4 | i
(20) O=C(CCC(=O)N(c1cccc(F)c1)C(C(=O)NC1CCCC1)c1ccncc1)Nc1cccnc1 (stereo unspecified)
  -2.0 | i
(21) CC(=O)N1CCN=C1SCc1ccccc1F
  -7.4 | nt
(22) N=C1C(c2nc3ccccc3c(=O)[nH]2)=C(O)CN1CCc1ccccc1
  -0.9 | nt
(23) COc1cc(C2=NOC(C(=O)NC3CCCCC3)C2)cc(OC)c1OC (stereo unspecified)
  1.5 | nt
(24) Cc1cccc(CCNC(=O)c2nnc(Cc3ccc(Cl)cc3)o2)c1
  -3.5 | nt
(25) O=C(NCCN1CCOCC1)c1ccc2c(c1)N(Cc1ccc(F)cc1)C(=O)CS2
  0.7 | nt
(26) Cc1onc(-c2ccccc2Cl)c1C(=O)NCCn1c(C)cc2ccccc21
  -7.6 | i
(27) NC(=O)c1cc(S(=O)(=O)Nc2cccc(F)c2)co1
  1.5 | nt
(28) O=C(NC1CCN(Cc2ccccc2)CC1)C1CCCN(S(=O)(=O)c2cccc3nonc23)C1 (stereo unspecified)
  3.1 | nt
(29) CCOC(=O)c1cccc(NC(=O)CN(c2ccc(C)cc2)S(=O)(=O)c2c(C)n[nH]c2C)c1
  -1.4 | nt
(30) O=C(O)CN1CCN(Cc2ccc(F)cc2Cl)C1=O
  4.6 | nt

A different layout for part of the listing above:
#22 N=C1C(c2nc3ccccc3c(=O)[nH]2)=C(O)CN1CCc1ccccc1
#23 COc1cc(C2=NOC(C(=O)NC3CCCCC3)C2)cc(OC)c1OC (stereo unspecified)
#24 Cc1cccc(CCNC(=O)c2nnc(Cc3ccc(Cl)cc3)o2)c1
#25 O=C(NCCN1CCOCC1)c1ccc2c(c1)N(Cc1ccc(F)cc1)C(=O)CS2

screen / no.,22,23,24,25
26S disassembly,-0.9,1.5,-3.5,0.7
VCAM-1 rise,nt,nt,nt,nt

The results go on:
Results follow in this order: 26S disassembly | VCAM-1 rise
(31) COc1ccc(-n2c(Cc3cccn3C)nnc2SCC(=O)Nc2ccccc2F)cc1
  -0.9 | nt
(32) CCn1c(=O)c(C(=O)NCc2ccc(OC)cc2)c(O)c2ccccc21
  0.0 | i
(33) O=C(NCc1ccco1)c1ccc2nc3sc4c(c3c(=O)n2c1)CCCC4
  0.6 | nt
(34) CCOC(=O)N1CCN(c2c(N3CCC(N4CCCCC4)CC3)c(=O)c2=O)CC1
  3.3 | nt
(35) CCN(CC)CCNC(=O)Cn1cnc2sc(C)c(S(=O)(=O)N3CCOCC3)c2c1=O
  -1.2 | nt
(36) CC1(C)CC(=O)C2=C(C1)N(c1ccc(F)cc1)C(=O)CC2c1cccnc1 (stereo unspecified)
  0.3 | nt
(37) O=C(NCc1ccc(F)cc1)c1cc2ccccn2n1
  0.2 | i
(38) CCOc1ccc(C(=O)N(Cc2ccc(N(C)C)cc2)C2CCS(=O)(=O)C2)cc1 (stereo unspecified)
  -5.0 | i
(39) Cc1nn(C(C)(C)C)c(OC(=O)C2CCCC2)c1S(=O)(=O)c1ccccc1
  1.0 | nt
(40) N#CC1=C(N)SC(N)=C(C#N)C1c1ccnc2ccccc12
  8.2 | nt
(41) COC(=O)c1ccccc1NC(=O)c1cnc2sccn2c1=O
  -9.8 | i
(42) Cc1cc(C(=O)CSc2nnc(-c3ccco3)o2)c(C)n1CC1COc2ccccc2O1 (stereo unspecified)
  1.0 | i
(43) Cc1ccc(Sc2c(C)[nH]n(C(C)(C)C)c2=O)cc1
  3.2 | nt
(44) O=C(NC(O)C(=O)c1ccccc1)c1cccs1 (stereo unspecified)
  -0.1 | nt
(45) CC(=O)Nc1sc2c(c1C(c1cccs1)N1CCOCC1)CCCC2 (stereo unspecified)
  0.9 | nt
(46) CCOC(=O)C1C(=O)N(C(=O)c2ccc(OC)cc2)CC1c1ccccc1 (stereo unspecified)
  -3.7 | i
(47) CCOC(=O)CC1Sc2ccccc2NC1=O (stereo unspecified)
  -2.5 | nt
(48) O=C(c1noc2c1CCc1ccccc1-2)N1CCOCC1
  -3.1 | i
(49) CCCC(=O)Nc1nc2ccc(S(N)(=O)=O)cc2s1
  0.0 | i
(50) Cc1ccc(NC(=O)CS(=O)CC(=O)NCC2CCCO2)cc1 (stereo unspecified)
  -0.6 | i
(51) COc1ccc(-n2c(=O)c3c4c(sc3n3cnnc23)CC(C)CC4)cc1 (stereo unspecified)
  0.7 | i
(52) O=C(Nc1c(F)cc(F)cc1Br)c1cc(-c2ccco2)on1
  0.9 | nt
(53) O=C(NCc1ccco1)c1cc(-c2ccc3c(c2)OCO3)on1
  -1.0 | nt
(54) Cc1ccc(C(=O)CC2(O)C(=O)N(C)c3ccccc32)o1 (stereo unspecified)
  -1.6 | nt
(55) O=C(C1CCC1)N1CCc2cc(S(=O)(=O)NCC3COc4ccccc4O3)ccc21 (stereo unspecified)
  0.3 | nt
(56) COc1ccc(C)cc1-n1c(N)c(C#N)c(C#N)c1-c1ccc(OC)c(OC)c1OC
  2.8 | i
(57) CCOCCCn1c(=S)[nH]c2cc(C(=O)N3CCC(C(N)=O)CC3)ccc2c1=O
  0.2 | nt
(58) Cc1noc(C)c1S(=O)(=O)N1CCC(C(=O)Nc2ccccn2)CC1
  -0.1 | i
(59) CC(C)CC(=O)Nc1c2c(nn1-c1ccc(F)cc1)CSC2
  0.2 | nt
(60) O=C(O)CCN1C(=O)c2ccccc2C1=O
  2.9 | i
(61) CCc1ccc(-c2nc(CN3CCC(C(=O)NCCc4ccc(OC)c(OC)c4)CC3)c(C)o2)cc1
  4.6 | nt
(62) CCCN1CCC(NC(=O)Nc2ccc(OC)c(OC)c2)CC1
  -1.4 | i
(63) CCN(c1cccc(C(F)(F)F)c1)S(=O)(=O)c1ccc2c(c1)CCN2C(C)=O
  2.3 | nt
(64) COCCN(C(=O)Nc1ccc(OC)cc1OC)C1CCN(C(C)=O)CC1
  -1.1 | nt
(65) COc1cccc(-n2c(SCC(=O)OC(C)C)nnc2-c2cccnc2)c1
  1.6 | i
(66) Cc1nc(S(=O)(=O)NC2CCCCC2)c(C#N)c(C)c1Cl
  -1.3 | nt
(67) Cc1cc(=O)oc(C)c1C(=O)NCc1ccccn1
  0.1 | nt
(68) CCn1c(=O)cc(SCC(=O)N2CCCCC2)c2ccccc21
  1.9 | nt
(69) COc1ccc(-c2nc3cc(NC(=O)Cc4ccc(OC)c(OC)c4)ccc3o2)cc1
  2.1 | i
(70) COc1cc(C(=O)N2c3ccccc3CC2C)cc(OC)c1OC (stereo unspecified)
  -1.2 | i
(71) Cc1cc(C)c(NC(=O)Cn2c(=O)n(Cc3ccco3)c(=O)c3ccccc32)c(C)c1
  -1.2 | nt
(72) COc1ccc2c(c1)CCc1c(C(=O)Nc3cc(C)n(Cc4ccc(Cl)cc4)n3)noc1-2
  1.2 | nt
(73) O=C(NCc1cccnc1)C1c2ccccc2C(=O)N1C1CCCC1 (stereo unspecified)
  ? | nt
(74) CCOc1ccc(NC(=O)CSc2nnc(Cc3cccn3C)n2-c2ccc(OC)cc2)cc1
  -0.9 | i
(75) Cc1nn(-c2ccccc2)c(Cl)c1C(=O)NCC(=O)O
  1.1 | i
(76) CC1CCN(c2nc3c(c(=O)[nH]c(=O)n3C)n2CCSc2ncccn2)CC1
  -0.2 | i
(77) Cn1c(SCC(=O)Nc2cccc3ccccc23)nc(O)cc1=O
  0.1 | i
(78) COc1ccc(COC(=O)c2n[nH]c3ccccc23)cc1F
  1.4 | i
(79) CCN(C(=O)Cc1c(C(=O)O)[nH]c2ccccc12)c1cc(OC)ccc1OC
  -0.4 | i
(80) CN(CCO)CC(O)Cn1cnc2c1c(=O)n(C)c(=O)n2C (stereo unspecified) (tested in a mixture with another compound)
  0.6 | i
(81) N#Cc1ccc(CSc2nnc(-c3ccccn3)n2-c2ccccc2)cc1
  0.4 | i
(82) CCC1CCCCN1C(=O)CSc1nnc(CNC(=O)c2ccco2)o1 (stereo unspecified)
  0.1 | nt
(83) CCn1c(=O)cc(OCC(=O)N2CCCC2)c2ccccc21
  -1.3 | nt
(84) O=C(CN1CCN(c2ccccn2)CC1)Nc1ccc(Cl)c(C(F)(F)F)c1
  1.4 | nt
(85) COc1cccc(C(=O)NCc2nnc(SCC(=O)Nc3nccs3)n2-c2cccc(C)c2)c1
  0.1 | nt
(86) O=C(Nc1ccc(N2CCCC2)cc1)c1cccc(F)c1
  3.7 | i
(87) Oc1ccc(C=Nc2cccc3ncccc23)c(O)c1
  -1.1 | i
(88) CCOC(=O)c1cc2n(c1C)-c1ccccc1C2=O
  -0.2 | nt
(89) O=C(c1ccco1)N1CCN=C1SCc1c(F)cccc1Cl
  1.3 | nt
(90) O=C(NC1CCCCCC1)c1cccc(N2CCCC2=O)c1
  -0.8 | nt

Next section
Results follow in this order: 26S disassembly | VCAM-1 rise
(91) Cc1cc2ccccc2c(=O)n1CC(=O)NCC(=O)N1CCCC1
  -3.4 | nt
(92) CCS(=O)(=O)N1CCC(C(=O)N2CCOCC2)CC1
  -1.2 | i
(93) CCn1cc(C2=NOC(C(=O)Nc3cc(OC)c(Cl)cc3OC)C2)c(C)n1 (stereo unspecified)
  -1.7 | nt
(94) CCN(CC)C(=O)c1scc2c1OCCO2
  0.3 | nt
(95) COCCNC(=O)CC(NS(=O)(=O)c1ccc(NC(C)=O)cc1)C(C)C (stereo unspecified)
  -0.7 | i
(96) COc1cc(C(=O)N2CCN(c3ccc(C)cc3C)CC2)cc(OC)c1OC
  -0.8 | nt
(97) CCOc1cc(C2C(C(=O)c3ccc(C)cc3)=C(C(=O)OC)Nc3nnnn32)ccc1O (stereo unspecified)
  -1.0 | nt
(98) O=C(NCc1ccc(Cl)cc1)c1ccc(COCC(F)(F)F)o1
  -0.9 | i
(99) COc1ccc(NC(=O)C2CCCN2S(=O)(=O)c2cccc3cccnc23)c(OC)c1 (stereo unspecified)
  -1.3 | i
(100) CC1=Nc2ccc(C)cc2N(Cc2ccccc2)C(=O)C1
  -0.1 | nt
(101) COC(=O)CN(c1ccc(F)cc1)S(=O)(=O)c1ccccc1
  2.1 | i
(102) Cc1cccc(CCNS(=O)(=O)c2ccc3c(c2)oc(=O)n3C)c1
  2.0 | nt
(103) O=C(NCc1nc2ccccc2[nH]1)c1ccco1
  0.0 | i
(104) O=C(c1nn2cccnc2c1Cl)N1CCN(c2ccccc2)CC1
  0.6 | i
(105) COc1cccc(-n2nnc3c(=O)n(Cc4cccc(F)c4)cnc32)c1
  1.1 | i
(106) COC(=O)c1[nH]c2ccc(C)cc2c1NC(=O)CN1CCN(C(=O)c2ccccc2)CC1
  4.5 | i
(107) COc1ccc(C(CC(=O)NCCCN2CCOCC2)NS(=O)(=O)c2ccc(C)cc2)cc1 (stereo unspecified)
  -2.1 | nt
(108) O=c1c2[nH]c3cccc(Cl)c3c2ncn1CCN1CCCCC1
  -0.2 | i
(109) CCOC(=O)c1cccc(NC(=O)Cn2cc3c(n2)CCC(C)C3)c1 (stereo unspecified)
  0.1 | nt
(110) CCOc1ccccc1NC(=O)CSc1nccn1-c1ccccc1
  0.7 | nt
(111) O=C1CSC(c2cccc(F)c2)N1c1ccccc1F (stereo unspecified)
  -0.9 | i
(112) O=C(O)CCCC(=O)Nc1ccc(Br)cc1C(=O)O
  -1.4 | i
(113) O=C(C1CCN(S(=O)(=O)N2CCC3(CC2)OCCO3)CC1)N1CCC(Cc2ccccc2)CC1
  -0.1 | nt
(114) O=C(CSc1nnnn1-c1ccccc1)c1cc2ccccc2oc1=O
  -4.0 | i
(115) Cn1c(=O)cc(SCC(=O)Nc2ccc3c(c2)OCO3)c2ccccc21
  0.4 | nt
